Source: PubChem
2A StopGo = lowers the luciferase signal of an FMDV 2A StopGo reporter | human cells with a luciferase reporter of 2A StopGo recoding; control for the full effect not named in the record | Potency, µM (top dose mostly 57.9 µM), without a hit: at the highest dose signal change, negative = less light | actives 1.2% (n = 410,000) | AID 1159524; active = well fitted falling curve with a large enough effect; inconclusive = small, poorly fitted or top-dose-only effect; inactive = no such curve, though single readings can be large or run the other way; tested in HEK293T cells; note: % is set by controls: 0 for no effect and ±100 for the full control effect; nearly all actives have a fitted effect of over 45% in size; luciferase light after 4 h
Cruzain Triton = cruzain (T. cruzi) inhibition with detergent; purified cruzain, Z-FR-AMC fluorescence, 0.01% Triton; Potency, µM, without a hit: max response, negative = inhibition, most hits filed as inhibitors; actives 0.43% (n = 200,000); AID 1478; active = well fitted curve in the direction sought with a large enough effect; inconclusive = small, poorly fitted or top-dose-only effect, or another doubt; inactive = no such curve, though single readings can be large; an effect the other way counts as inactive or inconclusive;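 note: plate controls were neutral wells for no effect and buffer without enzyme for full effect; nearly all actives have a fitted effect of over 40% in size; top concentration of the series not given in the record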
Target sequence (P25779 123-467 limits assumed): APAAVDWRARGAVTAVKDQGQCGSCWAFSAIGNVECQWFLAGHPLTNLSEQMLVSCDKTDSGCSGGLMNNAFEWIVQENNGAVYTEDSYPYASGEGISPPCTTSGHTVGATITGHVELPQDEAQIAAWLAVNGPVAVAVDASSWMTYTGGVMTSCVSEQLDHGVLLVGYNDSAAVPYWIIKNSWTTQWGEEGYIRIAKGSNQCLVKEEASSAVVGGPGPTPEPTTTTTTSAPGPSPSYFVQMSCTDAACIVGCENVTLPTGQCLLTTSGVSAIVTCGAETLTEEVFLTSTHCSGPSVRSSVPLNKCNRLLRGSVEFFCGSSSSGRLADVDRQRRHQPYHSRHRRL
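Detergent-containing run (0.01% Triton X-100) in acetate buffer pH 5.5 with 5 mM DTT: enzyme at 1.5 nM final, 15 min compound preincubation at room temperature, then 2 uM Z-FR-AMC substrate. Activity taken as 60 s fluorescence increase at 360/450 nm.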
NS1 inh = inhibitors of influenza NS1 protein function | S. cerevisiae slowed by influenza A NS1, growth recovery by OD600 | actives 0.4% (n = 270,000) | Potency, µM (series often up to 46.1 µM), for the others: at the highest dose activity, positive = more growth; note: actives are rising curves; nearly all actives have a fitted effect of over 50% in size
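In this qHTS, NS1 from influenza A is expressed in budding yeast, where it slows growth. Cells are switched from glucose to 2% galactose medium (pH 6.0, -URA), treated with compound, and growth recovery is read at OD600.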
Lassa entry inh = Lassa virus entry inhibition; Potency, µM (highest dose often 37.9 µM), for inactives: top-dose activity change, negative = inhibition, hits mostly inhibitors; actives 1.2% (n = 300,000); AID 540256; Lassa virus pseudotype entry inhibition, cell reporter; control for the full effect not named in the record; active means well fitted inhibition curve with a large enough effect; inconclusive means small, poorly fitted or top-dose-only effect, or effect the other way; inactive means flat fitted curve, though single readings scatter; tested in HEK293 cells; note: % is set by controls: 0 for no effect and ±100 for the full control effect; nearly all actives have a fitted effect of over 50% in size; luciferase read-out
RE007 growth inh = less growth of the S. pombe RE007 Vpr strain. S. pombe RE007 Vpr strain, BacTiter-Glo ATP luminescence, 24 h; control for the full effect not named in the record. Potency, µM (titrated, usually from 92.2 µM), for the others: at the highest dose activity change, negative = less growth. actives 0.21% (n = 360,000). AID 651644; active = well fitted falling curve with a large enough effect; inconclusive = small, poorly fitted or top-dose-only effect; inactive = no such curve, though single readings can be large or run the other way;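 note: % is set by controls: 0 for no effect and ±100 for the full control effect; nearly all actives have a fitted effect of over 50% in size; the assay follows cell death caused by Vpr and the record does not say whether a fall means rescue or toxicity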
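Fission yeast strain RE007, carrying one chromosomally integrated HIV-1 vpr copy, was seeded at OD 0.01 in PMG+AL medium with 23 nL pinned compound. After 24 h at 30 °C and 99% humidity, viability was read by BacTiter-Glo luminescence.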
Cruzain noTriton = cruzain (T. cruzi) inhibition without detergent; AID 1476; Potency, µM, for inactives: max response, negative = inhibition, most hits filed as inhibitors; actives 2.3% (n = 200,000); purified cruzain, Z-FR-AMC fluorescence, no detergent; active = well fitted curve in the direction sought with a large enough effect; inconclusive = small, poorly fitted or top-dose-only effect, or another doubt; inactive = no such curve, though single readings can be large; an effect the other way counts as inactive or inconclusive;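 note: plate controls were enzyme without inhibitor for no effect and buffer without enzyme for full effect; nearly all actives have a fitted effect of over 40% in size; top concentration of the series not given in the record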
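Purified cruzain at 1.5 nM, pre-incubated 15 min with compound at room temperature in 100 mM sodium acetate pH 5.5, 5 mM DTT, 0.00005% Triton X-100. Reaction started with 2 uM Z-FR-AMC; AMC fluorescence increase over 60 s gives rate.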
MARV entry inh = Marburg virus entry inhibition; Marburg virus pseudotyped entry inhibition, cell reporter; control for the full effect not named in the record; about a third of the inactives were read at about 46 µM; Potency, µM (titrated, usually from 37.8 µM), for inactives: at the top dose activity change, negative = inhibition, actives largely listed as inhibitors; actives 1.8% (n = 300,000); AID 540276; active = well fitted inhibition curve with a large enough effect; inconclusive = small, poorly fitted or top-dose-only effect, or effect the other way; inactive = flat fitted curve, though single readings scatter; tested in HEK293 cells; about a fifth of its hits are not listed in these tables; note: % is set by controls: 0 for no effect and ±100 for the full control effect; luciferase read-out
SARS PLP yeast = inhibitors of SARS-CoV papain-like protease in yeast; AID 485353; actives 0.19% (n = 330,000); S. cerevisiae expressing SARS-CoV PLpro, growth rescue; control for the full effect not named in the record; Potency, µM (series often up to 32.9 µM), for the others: at the top dose activity, positive = growth rescue; note: 0% is about no effect; nearly all actives have a fitted effect of over 55% in size; growth read by luminescence after 48 h
An asterisk follows results filed as active; ? = inconclusive; . = no result given; & = joins results of further samples; [ ] = another dose, or the depositor's remark. Unless noted, calls come from the whole dose curve; as a rule, active means well fitted rising curve with a large enough effect; inconclusive means small, poorly fitted or top-dose-only effect; inactive means no such curve, though single readings can be large or run the other way. Potency is the fitted concentration of half-maximal effect. Compounds were not picked by outcome; about 4.6% have a hit in one of these screens.

SMILES	2A StopGo	Cruzain Triton	NS1 inh	Lassa entry inh	RE007 growth inh	Cruzain noTriton	MARV entry inh	SARS PLP yeast
CCN(CC)S(=O)(=O)c1ccc(NC(=O)c2cccnc2Cl)c(NC(=O)c2cccnc2Cl)c1	25%	.	.	?	-9%	.	?	-2%
CC1CCCC(C)N1C(=O)COC(=O)c1nn(C)c(=O)c2ccccc12 (stereo not drawn)	-7%	.	3%	.	2%	.	.	3%
COc1ccccc1CN1CCNC(=O)C1CC(=O)N(C)Cc1cnccn1 (stereo not drawn)	-11%	.	-3%	-13%	5%	.	-1%[46.1 µM]	0%
Cc1c(NC(=O)c2cc(-c3ccc(Cl)cc3)on2)c(=O)n(-c2ccccc2)n1C	-26%&-17%	10.0%	-8%	23%	2%	-20%	-3%&-13%[46.1 µM]	-1%
Cc1cccc(NCN2C(=O)c3ccccc3C2=O)c1	.	3.2%	3%	3%	2%	-9%	15%	-4%
CCOC(=O)COc1ccc(S(=O)(=O)NCc2ccncc2)cc1	.	0.3%	19%	?	-6%	-6%	-30%	2%
CCn1ncc(Br)c1C(=O)Nc1ccc(F)c([N+](=O)[O-])c1	-6%	-5.1%	13%	-21%	-6%	10%	?	-5%
O=C(Cc1csc(N2CCOCC2)n1)N/N=C/c1ccc(F)cc1	2%	3.3%	-2%	16%	8%	-1%	-7%	5%
CCCS(=O)(=O)N1CCCC(C(=O)NCCCN2CCN(c3ccc(F)cc3)CC2)C1 (stereo not drawn)	?	0.5%	-1%	-30%	8%	4%	-27%&-27%	-4%
CC(Oc1ccc2c3c(c(=O)oc2c1)CCC3)C(=O)NCC1CCC(C(=O)O)CC1 (stereo not drawn)	3%	.	15%	.	4%	.	.	-5%
CSc1nnc(NC(=O)Cc2coc3cc(C)ccc23)s1	8%	-3.4%	.	-19%[46.1 µM]	.	?	?	.
CCC(C)n1c(SCC(=O)NC2CCCC2)nc2ccccc2c1=O (stereo not drawn)	0%	.	.	-22%[46.1 µM]	3%	.	.	.
Cc1ccc(S(=O)(=O)N(Cc2ccc(Cl)cc2)c2ccccc2C(=O)O)cc1	-19%	.	9%	13%	2%	.	?	-1%
CCC(C)(C)NC(=O)c1ccc2c(c1)N(CC(=O)NC1CCCC1)C(=O)C(C)(C)O2	9%	.	-2%	1%[46.1 µM]	-11%	.	-15%[46.1 µM]	3%
Cn1c(=O)c2c(SCC(=O)N3CCCc4ccccc43)nc(C3CC3)nc2n(C)c1=O	0%	-4.4%	-93%	.	-4%	-23%	.	0%
CC(=NCc1ccccc1)C1=C(O)COC1=O	0%	2.1%	2%	-20%	8%	0%	-4%[46.1 µM]	1%
N#Cc1c(NCCCO)nc(-c2ccccc2)c2c1CCCC2	0%	-11%	-89%	-1%	7%	?	-15%&-15%[46.1 µM]	-3%
CC1CC2(CCCCC2)N2C(=O)C(=O)c3cccc1c32 (stereo not drawn)	-23%	-6.9%	-48%	-8%	-8%	13%	?	-15%
Clc1cccc(CN2CCN(c3ncccn3)CC2)c1Cl	?	.	-18%	.	2%	.	.	-4%
O=C(CN1CCN(c2ccccc2)CC1)NCc1ccc(F)cc1	-16%	.	-9%	.	1%	.	.	3%
CC(C)(C)NC(=O)C1CCCN(S(=O)(=O)c2ccc(-n3cnnn3)cc2)C1 (stereo not drawn)	-12%	.	21%	-1%[46.1 µM]	-12%	.	-20%[46.1 µM]	1%
O=C(N/N=C/c1ccccn1)c1ccc(Br)o1	48%[activator]	-0.1%	-13%	-13%	?	-12%	-25%	-11%
CCN1c2ccccc2-c2nc(SCC(=O)Nc3cccc(C)c3C)ncc2S1(=O)=O	?	-0.1%	.	.	.	-12%	.	.
CCCCN(CC)S(=O)(=O)c1ccccc1	10%	-0.6%	-6%	-4%	14%[3.69 µM]	10%	19%	8%
CCc1ccc(NC(=O)C2CCCN(S(=O)(=O)c3cnc[nH]3)C2)cc1 (stereo not drawn)	9%	.	-11%	.	5%	.	.	1%
O=C(COC(=O)c1ccccc1O)NCCc1c[nH]c2ccccc12	0%	.	.	4%	14%	.	?	6%
O=Cc1ccc(OCC(=O)Nc2ccccc2C(F)(F)F)cc1	36%[activator]	.	-1%	?	6%	.	0%	0%
Cc1cccn2c(=O)c(/C=C(\C#N)S(=O)(=O)c3ccccc3)c(N3CCN(c4ccccc4)CC3)nc12	-20%	.	4%	.	0%	.	.	0%
c1cnc(OCCN2CC2)cn1	-4%	.	.	-5%	-9%	.	12%	.
N#Cc1cnn2c(-c3ccc(Cl)cc3Cl)ccnc12	-24%	.	-2%	-19%	2%	.	?	2%
COc1ccc(-c2nc(CN3C(=O)CN=C(c4ccccc4Cl)c4cc(Cl)ccc43)c(C)o2)cc1OC	?	-3.8%	.	-13%[46.1 µM]	.	?	-30%[46.1 µM]	.
Cc1nnc(NC(=O)CSc2nc3c(c(=O)n2CCc2ccccc2)SC(C)C3)s1 (stereo not drawn)	-25%	1.9%	-37%	.	2%	?	-1%	5%
COc1ccc(-c2cc(C(=O)NCCc3ccccc3)no2)cc1OC	13%	4.3%	-5%	55%[14.3 µM]	4%	-3%	15%	0%
COc1ccc(-c2nc3ccccc3n2OC(C)C(=O)O)cc1 (stereo not drawn)	23%	.	4%	26%	-11%	.	14%[46.1 µM]	1%
CCOc1ccc(C(=O)Nc2c(C(N)=O)oc3ccccc23)cc1	0%	-5.2%	-36%	6%	-5%	-21%	3%	-43%
CCc1ccc(NC(=O)CSc2nc3ccccc3nc2Cc2ccc(C)cc2)cc1	-14%	2.5%	.	-1%[46.1 µM]	.	-9%	.	.
Cc1nn(-c2ccccc2[N+](=O)[O-])c(=O)c2ccccc12	3%	.	-4%	?	-19%	.	-11%[46.1 µM]	0%
CC(=O)c1c(C)oc2ccc(N(C(=O)c3ccncc3)S(=O)(=O)c3ccc(C)cc3C)cc12	-8%	-3.6%	.	5%[46.1 µM]	.	-3%	?	.
CCCNC(=O)CS(=O)(=O)c1ccccc1	-13%	.	-6%	.	2%	.	.	2%
CC1CCCC(C)N1C(=O)CSc1ccc(-c2ccc3c(c2)OCCO3)nn1 (stereo not drawn)	36%[activator]	.	-19%	13%[46.1 µM]	-4%	.	?	-3%
COc1ccc(Cl)cc1NC(=O)CNc1ccc(F)cc1C	2%	-11%	-8%	7%	-15%	-9%	8%	-16%
CCCc1nc2ccc(NC(=O)c3ccco3)cc2c(=O)n1Cc1ccc(Cl)cc1	-18%	-3.9%	15%	-19%	-2%	6%	-10%	0%
CC(C)c1ccc(/C=C2\SC(N3CCCC3)=NC2=O)cc1	-11%	-12%	-1%	?	-6%	?	?	-47%
COc1ccc(NC(=O)C(=O)NCCN2CCN(C(=O)c3cccs3)CC2)cc1	3%	-2.6%	9%	-23%	-16%	-10%	13%[46.1 µM]	16%
Cc1ccc(Cn2ccc(NC(=O)c3cc(-c4cccs4)on3)n2)cc1	-2%	-1.2%	-2%	3%	1%	-8%	5%	5%
O=c1c2cc(N3CCOCC3)ccc2[nH]c(=S)n1CCN1CCCC1	-16%	-1.5%	15%	-7%	-7%	-6%	-20%	0%
C#CCn1c(=NC(=O)c2cc(Cl)sc2Cl)sc2cc(S(N)(=O)=O)ccc21	-16%	-6.4%	10µM*	?	11%	1%	?	12%
COc1ccccc1NS(=O)(=O)c1cccc(C(=O)NCC(c2ccco2)N(C)C)c1 (stereo not drawn)	-18%	.	.	1%	?	.	-34%	-4%
CC1CCCC(C(=O)OCc2ccccc2)N1 (stereo not drawn)	12%	-2.5%	-3%	?	22%	1%	-22%[46.1 µM]	5%
O=C1NC(c2ccccc2)=C(c2nc3ccccc3s2)C(c2ccc(F)cc2)N1 (stereo not drawn)	22µM*	-7.5%	-5%	?	-8%	-25%	23µM*	-9%

More structures follow:
SMILES	2A StopGo	Cruzain Triton	NS1 inh	Lassa entry inh	RE007 growth inh	Cruzain noTriton	MARV entry inh	SARS PLP yeast
COc1ccc2c3c1O[C@H]1C(=O)CC[C@H]4[C@@H](C2)N(C)CC[C@]314	-4%	2.1%	.	.	?	-2%	.	-1%
CC/C(Cc1ccccc1)=N/NC(=O)CCn1nnc2ccccc21	-5%	.	.	6%	7%	.	40%[46.1 µM]	0%
COc1ccc(NC2CCCN(C(=O)c3cc(CC(C)C)nc(N)n3)C2)cc1 (stereo not drawn)	16%	.	7%	.	0%	.	.	1%
COc1ccc(C(=O)OCC(=O)c2ccc(CNC(C)=O)s2)cc1	41%[activator]	.	.	0%	14%	.	?	0%
NC(=O)CSc1nnnn1-c1cccc(Cl)c1	-18%	4.0%	0%	4%	33%	-1%	15%	8%
O=C(COC(=O)CN1C(=O)NC2(CCCC2)C1=O)Nc1ccc(C(F)(F)F)cc1[N+](=O)[O-]	-9%	.	.	1%	-12%	.	-11%[46.1 µM]	-3%
CSc1nc(Oc2ccc(F)cc2)c2ccccc2n1	-14%	-0.9%	3%	-10%	7%	-6%	0%	8%
CCn1cnc2c1c(=O)n(CC(=O)NCC(F)(F)F)c(=O)n2Cc1ccccc1	-18%	.	.	-24%[46.1 µM]	-1%	.	6%[46.1 µM]	-5%
Cc1cccc(N2CCN(C(=O)c3nn(C)c4c3CS(=O)(=O)c3ccccc3-4)CC2C)c1 (stereo not drawn)	?	-2.5%	-17%	-5%[46.1 µM]	1%	1%	.	-43%
COc1cc(C2C3=C(CCCC3=O)Nc3c2c(C)nn3-c2cccc(C)c2)cc(OC)c1O (stereo not drawn)	12%	.	-23%	11%	-4%	.	14%	-1%
CCOc1ccc(C(=O)NCC(c2cccs2)N(C)C)cc1OCC (stereo not drawn)	-9%	1.8%	-3%	8%	-14%	-6%	-43%	?
CN1C(=O)/C(=C2\SC(N3CCCCCC3)=NC2=O)c2ccccc21	47%[activator]	-3.8%	-3%	?	-12%	27%	30%	-11%
CC1CCCCN1C(=O)CSc1nc(N)nc(N)n1 (stereo not drawn)	-6%	.	.	-3%[46.1 µM]	-12%	.	19%	2%
